Screening results: PubChem, several laboratories
HSV augment: HSV replication enhancement | HSV replication augmentation in cells, fold increase | maximum fold increase | hit rate 0.005% among 220,000 | AID 1956;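 active = peak rise of 1.5-fold or more in the series; inconclusive = self-fluorescent or not available for retest; tested in PC3 cells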;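 also: first round at 10 µM; read as green reporter fluorescence; hits show the peak of a series up to 25 µM; 1 = signal of infected wells without compound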
GALR2 agonist: GALR2 (human) receptor agonism; O43603; GALR2-expressing cells, agonist activation read-out; activation, %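 (tested at 5 µM)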; hit rate 0.48% among 140,000;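 active = above mean plus 3 SD of all compounds, about 5% in these data, not always enough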;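 also: 0% = vehicle buffer wells and 100% = reference agonist at full effect; tested in CHO reporter cells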
Target sequence (O43603 whole entry, looked up): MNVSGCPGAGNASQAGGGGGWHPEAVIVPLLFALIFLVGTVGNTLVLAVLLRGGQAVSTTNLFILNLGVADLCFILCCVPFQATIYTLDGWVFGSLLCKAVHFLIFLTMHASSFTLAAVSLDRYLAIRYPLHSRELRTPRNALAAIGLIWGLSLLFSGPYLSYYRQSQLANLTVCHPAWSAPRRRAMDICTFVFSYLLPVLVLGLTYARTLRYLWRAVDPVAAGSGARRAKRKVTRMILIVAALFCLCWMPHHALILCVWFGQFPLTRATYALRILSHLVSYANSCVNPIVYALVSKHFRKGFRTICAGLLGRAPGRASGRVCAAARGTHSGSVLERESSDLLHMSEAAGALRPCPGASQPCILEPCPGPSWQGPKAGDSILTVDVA
PKD1 kinase inh: PKD1 (human) kinase inhibition; Q15139; PKD1 kinase fluorescence polarization assay; inhibition, %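 (about 10 µM by stock and volumes)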; hit rate 0.056% among 200,000;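 active = inhibition of 50% or more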;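 also: controls were vehicle for no effect and a reference inhibitor for full effect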
RGS16-Gao HTS: modulates binding between human RGS16 and Galphao. O15492+P09471. bead-based flow cytometry RGS16-Galphao binding, fluorescence; actives lie on both sides. binding response (% of control), % at 10 µM. hit rate 0.38% among 220,000;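 active = below 25% or above 175%, edge rows of some plates excepted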;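 also: Galphao activated by GDP with aluminum fluoride before binding; 100% = wells without compound and 0% = beads without RGS; some results beyond the cut were filed as inactive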
Target sequence (O15492 whole entry, looked up): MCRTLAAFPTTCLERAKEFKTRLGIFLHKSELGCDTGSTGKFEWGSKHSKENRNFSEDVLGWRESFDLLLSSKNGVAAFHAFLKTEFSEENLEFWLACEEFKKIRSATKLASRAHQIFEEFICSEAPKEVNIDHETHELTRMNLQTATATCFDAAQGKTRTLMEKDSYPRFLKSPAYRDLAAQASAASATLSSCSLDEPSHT
Target sequence (P09471 whole entry, looked up): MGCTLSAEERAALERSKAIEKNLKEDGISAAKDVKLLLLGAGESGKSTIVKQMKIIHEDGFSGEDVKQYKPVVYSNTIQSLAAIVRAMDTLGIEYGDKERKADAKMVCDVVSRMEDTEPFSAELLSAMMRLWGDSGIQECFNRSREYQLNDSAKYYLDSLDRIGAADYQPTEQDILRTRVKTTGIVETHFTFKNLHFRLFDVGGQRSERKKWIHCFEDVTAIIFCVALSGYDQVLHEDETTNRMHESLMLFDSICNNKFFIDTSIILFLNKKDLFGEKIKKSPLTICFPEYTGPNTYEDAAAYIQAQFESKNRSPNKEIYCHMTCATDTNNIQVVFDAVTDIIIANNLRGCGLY
INS promoter inh: TRM-6 insulin promoter activity inhibition | TRM-6 cells (human fetal islet line), insulin promoter-eGFP reporter, imaging; reporter expression induced with tamoxifen | inhibition, % at 2 µM | hit rate 0.9% among 130,000;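 active = inhibition above the mean plus 3 SD, with well images judged a real hit on visual review, cut at about 60% in these data, passing the limit was not always enough; inconclusive = inhibition over the cutoff but images rejected on review; inactive = inhibition not above the cutoff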
INS promoter inh cell count: further read-out of INS promoter inh, marked with its call; normalized cell count, %; measured here: cell count, toxicity; reference of the scale not given here;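 cells exposed to compound for 48 h; stained nuclei by imaging scaled within each plate; lower means fewer cells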
HSV augment primary fold: second read-out of HSV augment, no call of its own (marks repeat the call); fold increase; compound at 10 µM; measured here: primary screen fold increase 10 uM; tested in PC3 cells;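 GFP signal in the first replicate; 1 = infected wells without compound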
Starred values were filed as active, the others as inactive; i = inactive; ? = inconclusive; . = no result given.

SMILES	HSV augment	HSV augment primary fold	GALR2 agonist	PKD1 kinase inh	RGS16-Gao HTS	INS promoter inh	INS promoter inh cell count
O=S(=O)(NCC(c1cccnc1)N1CCOCC1)c1cccs1 (stereo not given)	i	0.82	-1.4	-5	126	-20	72
CCCNCc1cc(Cl)c(OCC)c(Cl)c1	i	0.75	-1.2	-2	115	67	55
CCn1c(C)nc2cc(C(=O)N/N=C/c3cccc(O)c3O)ccc21	i	0.93	.	5	91	.	.
CCCCN(CC)C(=O)CSc1nc2n[nH]c(C)c2c(=N)n1-c1cccc(C)c1	.	.	.	-3	114	-7	117
O/N=C/c1ccc(OCc2ccccc2)c(Cl)c1	i	0.94	-0.3	-5	51	-40	40
CN(CC(=O)Nc1ccc(Cl)cc1)Cc1cc(=O)n2ccsc2n1	i	1	.	3	101	.	.
CC(=O)Nc1ccc(NC(=O)/C=C/c2ccccc2)cc1	i	1	.	5	110	30	84
CCc1ccc(CC2(O)CC(C)N(C)CC2C)cc1 (stereo not given)	i	0.95	-2.8	-3	95	11	93
CC(C)N1CCC(=NNC(=O)c2ccccc2[N+](=O)[O-])CC1	i	0.97	0.7	-6	98	-6	126
CC(C)(C)c1ccc(-c2nc3c(C#N)c(-c4ccc5c(c4)OCO5)ccn3n2)cc1	i	0.76	-2.1	-3	99	.	.
Cc1ccc(N2C(=O)CS/C2=N\C(=S)Nc2ccccc2)cc1	i	0.89	.	.	105	.	.
CC(C)(C)C(=O)Nc1cc(S(=O)(=O)Nc2ccc(Cl)cc2)ccc1Cl	i	1.1	0.6	-7	102	0	102
CCOC(=O)N1CCC(NC(=O)C(Cc2ccccc2)NC(=O)c2ccco2)CC1 (stereo not given)	i	0.8	-1.2	-9	100	-382	41
CCN(CC)S(=O)(=O)c1cccc(NC(=S)NC(=O)/C=C/c2ccc(S(=O)(=O)N3CCOCC3)cc2)c1	i	0.78	-0.1	1	115	7	99
COCCn1c(N)c(N(Cc2ccccc2)C(=O)c2ccc(C#N)cc2)c(=O)[nH]c1=O	i	0.98	.	2	100	-108	70
O=C1/C(=C/c2cccnc2)SC(=S)N1CCc1ccccc1	i	0.73	.	.	97	.	.
CCOCCCNC(=O)c1c(C)c(C(=O)OCC)n(C)c1C	i	1.1	-0.1	-1	102	.	.
O=P(Cc1nnco1)(c1ccccc1)c1ccccc1	i	0.99	-0.9	-7	54	-18	156
C/C=C\C=C/C(=O)Nc1cccc(C2=NOC3(C2)C[C@@H](C(N)=O)N(C(=O)[C@H]2CCC(=O)N2)C3)c1 (stereo not given in full)	i	1.1	.	.	117	.	.
Cc1ccccc1Oc1ncnc2oc(-c3ccccc3)cc12	i	0.99	-2.4	2	73	.	.
S=c1[nH]nc(-c2cc(-c3ccccn3)nc3ccccc23)o1	i	0.95	.	.	94	.	.
COC(=O)C1=C(C)NC(=O)/C1=C\c1cc(C)n(-c2ccccc2)c1C	i	1.1	.	-6	85	.	.
CCc1ccc(NS(=O)(=O)c2ccc3[nH]cc(C(=O)NCC4CCCO4)c(=O)c3c2)cc1 (stereo not given)	.	.	-4.1	-4	96	.	.
COc1cc(/C=C(/C#N)c2nc3ccccc3[nH]2)ccc1OCC(=O)Nc1ccccc1C(C)C	i	0.53	-1.5	-4	103	19	143
Cc1ccc(N2C(=O)CC(Nc3ccc(Cl)c(S(=O)(=O)N(C)C)c3)C2=O)c(C)c1 (stereo not given)	i	0.96	.	3	102	.	.

(list continues)
SMILES	HSV augment	HSV augment primary fold	GALR2 agonist	PKD1 kinase inh	RGS16-Gao HTS	INS promoter inh	INS promoter inh cell count
O=C(O)/C=C\C(=O)NC1CCCCC1	i	1.1	-0.8	2	104	-7	114
COc1ccc(C2CC(=O)n3nc(C45CC6CC(CC(C6)C4)C5)nc3S2)cc1OC (stereo not given)	i	1.1	-0.4	9	98	.	.
CCC(=O)c1ccc(OCC(O)Cn2c(C)nc3ccccc32)cc1 (stereo not given)	i	0.96	-2.2	-7	100	-375	78
CCOC(=O)c1sc(NC(=O)CNCc2cccnc2)c(C(=O)OCC)c1C	i	1	.	-2	94	.	.
CN1C(=O)/C(=C\c2ccc(-c3ccccc3)o2)SC1=S	i	1.1	.	-7	104	.	.
Cc1nc2c3ccccc3nc(SCC(=O)c3ccc(Cl)cc3)n2n1	i	1	1.1	-8	106	-9	103
O=C(O)CC(NC(=O)C1c2ccccc2Oc2ccccc21)c1ccc(OC2CCCC2)cc1 (stereo not given)	i	0.91	.	2	101	.	.
Cc1ccc(S(=O)(=O)N2CCCC(C(=O)NCCc3ccc4c(c3)OCO4)C2)cc1 (stereo not given)	i	1	-0.1	-1	126	.	.
O=C(Nc1cccc2ccccc12)c1ccc(Cn2cc(Cl)cn2)cc1	i	0.85	-2.2	6	110	.	.
N#CC1=C(N)OC2=C(C(=O)CC(c3ccco3)C2)C1c1ccc(OCc2c(F)cccc2Cl)cc1 (stereo not given)	i	1.1	-0.9	-2	101	0	91
CCOc1ccc2c(c1)C(=O)c1cc(OCC(=O)O)ccc1-2	i	1	.	.	99	.	.
CCOC(=O)c1cnn(-c2ccccc2)c1-n1cccc1C(=O)C(=O)N(C)C	i	1.1	.	-5	101	-40	135
CC(C)(C)C1CCc2sc(C(=O)NNC(=O)CCl)cc2C1 (stereo not given)	i	0.64	.	0	102	.	.
C1CCN(c2nc3nonc3nc2N2CCCC2)C1	i	0.89	-2.0	7	94	-6	113
CC1CCCCC1NC(=O)CCS(=O)(=O)c1cccc2nonc12 (stereo not given)	i	0.93	-1.2	-16	96	.	.
Cc1ccc(Cn2c(CN3CC(C)OC(C)C3)nc3c2c(=O)n(C)c(=O)n3C)cc1 (stereo not given)	i	0.89	-2.6	-11	107	.	.
COc1ccc(OC)c(S(=O)(=O)N2CCC(C(=O)NCc3ccccc3)CC2)c1	i	0.86	-0.5	-4	100	.	.
CC[C@H](C)[C@@H]1NC(=O)c2cc([N+](=O)[O-])cc(I)c2NCC[C@@H](C(N)=O)NC(=O)[C@H](CCCN=C(N)N)NC1=O	i	0.88	-2.2	-8	104	-68	138
COC(=O)C1CCN(C(=O)c2cc3c(=O)n4cccc(C)c4nc3n2Cc2ccccc2)CC1	i	0.95	.	.	101	.	.
CCc1cccc(C)c1NC(=S)N(CCCN1CCN(C)CC1)Cc1cccs1	i	0.84	.	-3	105	40	115
Cn1c(Sc2ccc(Cl)cc2)c(C=O)c2ccccc21	i	0.85	-3.1	3	93	41	91
Cc1cc(C)c2c(=O)[nH]n(C(C)C)c2n1	i	0.97	-1.4	-9	103	.	.
CCCS(=O)(=O)N1CCN(C(=O)CCC2CCCC2)CC1	i	1.2	-1.3	-2	101	0	120
Cc1cc(=O)[nH]c(SCC(=O)N2CCN(C(c3ccccc3)c3ccccc3)CC2)n1	i	0.95	0.8	5	100	53	94
O=S(=O)(NCC(O)COCc1ccco1)c1cccs1 (stereo not given)	i	1	.	.	101	.	.

Six neighbouring records out of the list so far:
SMILES	HSV augment	HSV augment primary fold	GALR2 agonist	PKD1 kinase inh	RGS16-Gao HTS	INS promoter inh	INS promoter inh cell count
Cc1nc2c3ccccc3nc(SCC(=O)c3ccc(Cl)cc3)n2n1	i	1	1.1	-8	106	-9	103
O=C(O)CC(NC(=O)C1c2ccccc2Oc2ccccc21)c1ccc(OC2CCCC2)cc1 (stereo not given)	i	0.91	.	2	101	.	.
Cc1ccc(S(=O)(=O)N2CCCC(C(=O)NCCc3ccc4c(c3)OCO4)C2)cc1 (stereo not given)	i	1	-0.1	-1	126	.	.
O=C(Nc1cccc2ccccc12)c1ccc(Cn2cc(Cl)cn2)cc1	i	0.85	-2.2	6	110	.	.
N#CC1=C(N)OC2=C(C(=O)CC(c3ccco3)C2)C1c1ccc(OCc2c(F)cccc2Cl)cc1 (stereo not given)	i	1.1	-0.9	-2	101	0	91
CCOc1ccc2c(c1)C(=O)c1cc(OCC(=O)O)ccc1-2	i	1	.	.	99	.	.

The results go on.
SMILES	HSV augment	HSV augment primary fold	GALR2 agonist	PKD1 kinase inh	RGS16-Gao HTS	INS promoter inh	INS promoter inh cell count
COc1ccc(OC)c(S(=O)(=O)Nc2ccccc2SC)c1	i	0.85	-1.2	9	105	-22	128
COc1cccc(/C(O)=C2/C(=O)C(=O)N(CCN(C)C)C2c2ccc(Br)cc2)c1 (stereo not given)	i	0.99	-0.6	6	99	-69	49
CC(=O)O[C@@H]1[C@@]2(C)O[C@H]2CC[C@]23O[C@H]2[C@H](OC3=O)C2=C(C)C(=O)O[C@@]21O	i	0.87	-0.1	2	101	-14	89
CC(C)(C)c1ccc(Cn2nnc3c(=O)[nH]c(C4CCN(C(=O)Cc5cccs5)CC4)nc32)cc1	i	1	0.6	-5	119	.	.
COc1ccc(C(=O)Nc2ccccc2N2CCN(C(=O)C(C)C)CC2)cc1Cl	i	1	-1.4	-4	103	-475	46
O=C(COc1ccc(Cl)cc1)Nc1cnn(Cc2c(Cl)cccc2Cl)c1	i	0.96	-2.8	-3	109	-27	64
Cc1cc(NC(=O)CCC(=O)N(Cc2ccco2)C(C)(C)C(=O)NC2CCCCC2)no1	i	0.85	-1.2	2	105	-290	86
Cc1cccc2nc(COc3ccc4ccccc4c3Br)cn12	i	0.92	.	.	91	.	.
CC1(C)C(=O)OC(c2cccn2-c2ccc([N+](=O)[O-])cc2)C(C)(C)C1=O (stereo not given)	i	1.1	-1.6	4	92	.	.
CCn1c(SCc2nc3ccccc3[nH]2)nnc1-c1cnccn1	i	0.96	-1.8	-2	106	-67	107
Nc1ccc2c3c(cccc13)CC2	?	.	-0.7	-18	105	-377	104
Cc1ccc(C(=O)Nc2sc(C)c(C)c2C(=O)c2ccccc2)cc1	i	0.99	-0.9	-1	69	36	124
CCOc1ccc(NS(=O)(=O)c2ccc(NC(C)=O)c(OC)c2)cc1	i	0.9	-3.5	-4	105	11	100
Cc1ccc(CNC(=O)c2ccc3c(=O)n(CC4CCCO4)c(=S)[nH]c3c2)cc1 (stereo not given)	i	1.1	-0.8	-1	120	51	71
O=c1cc(CCl)nc2sc3ccccc3n12	i	0.99	.	2	99	.	.
O=C(/C=C/c1ccccc1)NCc1ccco1	i	0.97	.	-3	99	.	.
CC(=O)c1ccc(-n2c(=O)[nH]c(=O)c3c(N)c(C(=O)c4ccc(Cl)cc4)sc32)cc1	i	0.7	.	.	98	.	.
COc1ccc(NC(=O)N2CCCC2C(=O)NCc2ccc(C)cc2)cc1 (stereo not given)	i	0.81	.	-3	100	.	.
Cc1cc(S(=O)(=O)N2CC(=O)N(CCc3ccccc3)C(=O)C2)ccc1F	i	1.1	0.9	19	97	10	102
C=C(C)COc1ccc(-c2nc(N)ncc2Oc2ccc(OC)cc2)c(O)c1	.	.	0.9	21	93	.	.
COc1ccc(C2=NN(C(=O)CCCC(=O)O)C(c3cn(-c4ccccc4)nc3-c3ccccc3)C2)cc1 (stereo not given)	i	0.84	.	.	98	.	.
O=C(c1ccc2c(c1)OCCO2)C1CCN(S(=O)(=O)c2ccccc2F)CC1	i	1.1	-2.7	0	100	-24	93
O=C(CSc1ccc(-c2ccco2)nn1)c1cccc([N+](=O)[O-])c1	i	0.89	0.8	-1	93	-44	129
CCCOc1ccccc1C1CC(=O)NC2=C1C(=O)CCC2 (stereo not given)	i	0.65	-1.7	0	191	.	.
Cn1c(SCC(=O)Nc2ccc3c(c2)OCCO3)nnc1-c1ccccn1	i	0.91	-1.5	-5	107	-58	96
COc1ccc(-c2nnc(NC(=O)c3cccs3)s2)c(OC)c1	i	0.99	.	.	94	.	.
CCCCOC(=O)c1cccnc1	i	0.96	.	.	103	.	.
CC1CCCCC1NC(=O)c1ccc(CSc2nc3ccncc3[nH]2)cc1 (stereo not given)	.	.	-1.8	-5	85	-37	132
O=C(NCCCN1CCCC1)Nc1cccc2ccccc12	.	.	-0.7	-8	95	-14	149
COC(=O)c1cccc(CN2C(=O)SC(Nc3ccc(C)cc3)C2=O)c1 (stereo not given)	i	0.95	.	.	115	.	.

By substructure, those above with a COOH group.
SMILES	HSV augment	HSV augment primary fold	GALR2 agonist	PKD1 kinase inh	RGS16-Gao HTS	INS promoter inh	INS promoter inh cell count
O=C(O)/C=C\C(=O)NC1CCCCC1	i	1.1	-0.8	2	104	-7	114
O=C(O)CC(NC(=O)C1c2ccccc2Oc2ccccc21)c1ccc(OC2CCCC2)cc1 (stereo not given)	i	0.91	.	2	101	.	.
CCOc1ccc2c(c1)C(=O)c1cc(OCC(=O)O)ccc1-2	i	1	.	.	99	.	.
COc1ccc(C2=NN(C(=O)CCCC(=O)O)C(c3cn(-c4ccccc4)nc3-c3ccccc3)C2)cc1 (stereo not given)	i	0.84	.	.	98	.	.
